TRPV1 potentiator: human TRPV1 potentiation; Q8NER1; TRPV1-expressing cells, Fluo-8 calcium influx, capsaicin EC20 potentiation; host cell line not named in the record; control for the full effect not named in the record; potentiation, % at 8.33 µM; actives 0.02% (n = 320,000); AID 540277; active means potentiation above 80%; inconclusive means 30% to 80%; inactive means below 30%; note: 0% is about no effect
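TRPV1-expressing cells were cultured overnight at 35.5C and loaded with Fluo-8 calcium dye for 40 to 90 min at room temperature. After a 10 s baseline, compound was added and calcium influx was read kinetically for 3 min (ex 480/em 520 nm).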
PINK1 expr mod: modulators of PINK1 expression; PINK1 immunofluorescence, high-content cytometry, 24 h; Potency, µM (doses to about 76.6 µM), inactives show top-dose activation (PINK1 increase), usual class: activators; actives 0.2% (n = 410,000); active = well fitted activation curve with a large enough effect; inconclusive = small, poorly fitted or top-dose-only effect; inactive = flat fitted curve, though single readings scatter; cell line not stated here;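 note: potency is the fitted concentration of half-maximal effect; % of control where 0% means no effect; nearly all actives have a fitted effect of over 65% in size; a mitochondrial uncoupler was the plate control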
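Fluorescence from anti-PINK1 antibody, together with nuclear and cell stains, was scanned on a laser-scanning cytometer. Before staining, stable-line cells were incubated 24 hours with compounds at 5 concentrations; primary antibody 12 h at 10 degrees C.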
D2 ag: human D2 receptor agonism in beta-arrestin assay; actives 0.084% (n = 360,000); P14416; AID 624465; DiscoveRx PathHunter D2 beta-arrestin, luminescence, 90 min; 100% = 57 uM dopamine signal; activation, % (concentration not given with the values); in the data active = activation above about 40%; inconclusive = about 15% to 40%; inactive = below about 15%; note: compound concentration not given in the record; the text of the record calls up to 30% inactive
Target sequence (P14416 whole entry, looked up): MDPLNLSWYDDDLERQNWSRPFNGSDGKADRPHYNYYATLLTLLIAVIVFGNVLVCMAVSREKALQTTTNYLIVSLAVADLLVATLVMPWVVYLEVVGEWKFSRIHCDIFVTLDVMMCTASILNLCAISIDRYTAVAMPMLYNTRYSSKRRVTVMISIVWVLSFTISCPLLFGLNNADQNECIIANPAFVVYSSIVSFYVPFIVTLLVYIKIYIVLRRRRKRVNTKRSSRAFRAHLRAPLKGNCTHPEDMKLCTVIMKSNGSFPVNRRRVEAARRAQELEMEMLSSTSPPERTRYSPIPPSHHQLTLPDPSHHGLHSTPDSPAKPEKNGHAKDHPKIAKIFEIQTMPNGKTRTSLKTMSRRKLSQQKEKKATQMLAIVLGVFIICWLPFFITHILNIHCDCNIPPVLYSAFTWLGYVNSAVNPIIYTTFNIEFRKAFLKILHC
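DiscoveRx PathHunter D2 beta-arrestin cells (2,100/well) attached overnight, then compound-stimulated 90 min at 37 C in HBSS/10 mM HEPES/0.1% Tween-20 buffer; beta-galactosidase complementation read by luminescence after 1 h at ambient temperature. Dopamine 57 uM final (EC100) as control.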
Sfp inh: Sfp phosphopantetheinyl transferase inhibition; Biochemical Sfp PPTase activity, qHTS; Potency, µM, for the others: max response, negative = inhibition, actives largely listed as inhibitors; actives 3.5% (n = 310,000); AID 1490; active = well fitted inhibition curve with a large enough effect; inconclusive = small, poorly fitted or top-dose-only effect, or another doubt; inactive = no such curve, though single readings can be large or run the other way;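 note: the enzyme is Sfp with the accession as filed and its product quenches rhodamine fluorescence; potency is the fitted concentration of half-maximal effect; 0% = enzyme reaction without inhibitor and -100% = no enzyme wells; top concentration of the series not given in the record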
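Buffer: 50 mM Hepes-Na pH 7.6, 10 mM MgCl2, 0.01% Nonidet P-40, 0.01% BSA. Enzyme 15 nM, pre-exposed to compound 15 min; substrates then added and fluorescence change tracked over 30 min.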
CtBP-E1A inh: inhibitors of CtBP/E1A interaction; AlphaScreen GST-E1A/His-CtBP binding, 1536-well; hits give low values; control for the full effect not named in the record; activity change, % (test concentration not listed); actives 0.49% (n = 340,000); in the data active means activity change below about -65%; inconclusive means about -30% to -65%; inactive means above about -30%; note: % is set by controls: 0 for no effect and ±100 for the full control effect; compound concentration not given in the record
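In 5 uL wells, 23 nL compound meets equimolar GST-E1A and His-CtBP (5X stock 125 nM each) for 2 h, 37 °C. Beads (5X, 50 ug/mL) then 1 h, 37 °C, dark.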
D2 potentiator: human D2 receptor positive allosteric modulation | AID 624464 | potentiation, % (no concentration beside the values) | P14416 | DiscoveRx D2 beta-arrestin cells, luminescence, 90 min; 100% = 57 uM dopamine signal | actives 0.23% (n = 360,000); active = potentiation of 50% or more; inconclusive = 30% to 50%; inactive = 30% or less;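 note: compound concentration not given in the record; tested on top of an EC20 dose of dopamine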
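D2 cells co-treated with compound plus 50 nM dopamine (EC20) for 90 min at 37 deg C to detect potentiation. Beta-arrestin recruitment was read as enzyme-fragment luminescence after 1 h at ambient temperature. Full response was set by 57 uM dopamine.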
Six1-Eya2 inh: blocks human Six1 binding to Eya2; Q15475+O00167; AlphaScreen GST-Six1/His-Eya2 binding, biochemical; hits give low values; control for the full effect not named in the record; activity change, % (no concentration beside the values); actives 0.56% (n = 360,000); AID 651725; in the data active = activity change below about -65%; inconclusive = about -30% to -65%; inactive = above about -30%; note: % is set by controls: 0 for no effect and ±100 for the full control effect; compound concentration not given in the record
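AlphaScreen with GST-Six1 and His-Eya2 (5X mix: 250 nM and 500 nM), glutathione donor and nickel acceptor beads; buffer 50 mM Tris pH 8.0, 300 mM NaCl, 1 mM TCEP; 1 h at 37 C in the dark.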
An asterisk follows results filed as active; [ ] = another dose, or the depositor's remark. Random draw from the library (roughly 3.7% active in at least one column).

What do the screens show for `O=C(COc1ccc2ccccc2c1)N1CCN(C(=O)c2cccs2)CC1`?
TRPV1 potentiator: 3; PINK1 expr mod: 1.5%; D2 ag: 0.5; Sfp inh: 14%; CtBP-E1A inh: 1; D2 potentiator: 8; Six1-Eya2 inh: -1

What do the screens show for `Cc1ccc(NS(=O)(=O)c2cc(C(=O)N3CCN(C)CC3)ccc2C)cc1C`?
TRPV1 potentiator: 3; PINK1 expr mod: -1.4%; D2 ag: -1.2; Sfp inh: 6%; CtBP-E1A inh: 0; D2 potentiator: -15; Six1-Eya2 inh: 5

Results for Cc1nn(-c2ccccc2)c(Cl)c1/C=N\NC(=O)c1cnccn1 ?
TRPV1 potentiator: -13; PINK1 expr mod: 4.8%; D2 ag: -3.0; Sfp inh: -12%; CtBP-E1A inh: 7; D2 potentiator: -7; Six1-Eya2 inh: -1

What do the screens show for `CCN(CC(=O)NC(C)(C)C)C(=O)COc1c(Cl)cc(Cl)c2ccc(C)nc12`?
PINK1 expr mod: 3.5%; D2 ag: -1.2; Sfp inh: 21%; D2 potentiator: -11; Six1-Eya2 inh: -2

What do the screens show for `O=C(NNc1ncnc2c1cnn2-c1ccccc1)c1ccco1`?
TRPV1 potentiator: 3; PINK1 expr mod: 0.8%; D2 ag: -4.6; Sfp inh: 16%; CtBP-E1A inh: -3; D2 potentiator: -7; Six1-Eya2 inh: -4

How did S=C(NCCc1c[nH]c2ccccc12)NC1CCCCC1 do in these assays?
TRPV1 potentiator: -7; PINK1 expr mod: 0.2%; D2 ag: -2.6; Sfp inh: 17%; CtBP-E1A inh: -6; D2 potentiator: -13; Six1-Eya2 inh: -6

What do the screens show for `COc1ccc(S(=O)(=O)N2CCC(NC(=O)c3ccccc3)CC2)cc1`?
TRPV1 potentiator: 3; PINK1 expr mod: 7.7%; D2 ag: -1.1; Sfp inh: 24%; CtBP-E1A inh: -8; D2 potentiator: -4; Six1-Eya2 inh: -14

What do the screens show for `COCCNC(=O)C1CCCN(C(=O)c2cncc(Br)c2)CC1` (stereo not drawn)?
PINK1 expr mod: 0.7%; D2 ag: -4.9; CtBP-E1A inh: 5; D2 potentiator: -15; Six1-Eya2 inh: 8

How did COc1ccccc1CCC(=O)N1CCN(S(=O)(=O)c2cc(C(F)(F)F)ccc2Cl)CC1 do in these assays?
TRPV1 potentiator: 12; PINK1 expr mod: 1.6%; D2 ag: 1.0; D2 potentiator: 2; Six1-Eya2 inh: 2

How did Cc1cccc(C)c1-n1c(SCC(=O)N2CC(=O)Nc3ccccc32)nc2ccccc2c1=O do in these assays?
TRPV1 potentiator: -1; PINK1 expr mod: -0.7%; D2 ag: 1.4; Sfp inh: -7%; CtBP-E1A inh: -3; D2 potentiator: 0; Six1-Eya2 inh: -13

What do the screens show for `CC(C)c1ccccc1NC(=O)CCCC(=O)O`?
TRPV1 potentiator: 7; PINK1 expr mod: -0.5%; D2 ag: -0.9; Sfp inh: 6%; CtBP-E1A inh: 9; D2 potentiator: -3; Six1-Eya2 inh: 4

Results for COc1ccc(CN2C3CCCC2CC(NC(=O)Nc2ccccc2)C3)cc1 (stereo not drawn) ?
TRPV1 potentiator: 3; PINK1 expr mod: -2.1%; D2 ag: -5.4; Sfp inh: 10%; CtBP-E1A inh: 1; D2 potentiator: -45; Six1-Eya2 inh: -2

Results for OCC[C@@H]1C[C@@H](O)[C@H](O)[C@@]2(Cc3ccccc3O2)O1 ?
TRPV1 potentiator: -12; PINK1 expr mod: -0.1%; D2 ag: 1.3; Sfp inh: 11%; CtBP-E1A inh: 7; D2 potentiator: 2; Six1-Eya2 inh: -2

How did N=C1S/C(=C\c2ccc(-c3cccc(Cl)c3)o2)C(=O)N1c1nccs1 do in these assays?
TRPV1 potentiator: 22; PINK1 expr mod: 9.5%; D2 ag: 2.1; Sfp inh: 35µM*; CtBP-E1A inh: -1; D2 potentiator: 8; Six1-Eya2 inh: -18

How did CCOC(=O)COc1c(Cl)cc(/C=C2\N=C(C)OC2=O)cc1OC do in these assays?
PINK1 expr mod: 1.3%; D2 ag: -0.8; CtBP-E1A inh: 6; D2 potentiator: -9; Six1-Eya2 inh: 22

How did CCCc1cc(=O)oc2c(C)c(OCC(=O)Nc3ccccn3)ccc12 do in these assays?
TRPV1 potentiator: 1; PINK1 expr mod: inconclusive; D2 ag: 1.8; Sfp inh: -9%; CtBP-E1A inh: 7; D2 potentiator: 5; Six1-Eya2 inh: 8

How did COc1ccc(NS(=O)(=O)c2cccs2)cc1S(=O)(=O)N1CCOCC1 do in these assays?
TRPV1 potentiator: 1; PINK1 expr mod: -0.2%; D2 ag: -0.4; Sfp inh: 25%; CtBP-E1A inh: -13; D2 potentiator: -8; Six1-Eya2 inh: 6

What do the screens show for `Cn1cccc1CN1CCC[C@]2(N[C@H](c3ccc(C(F)(F)F)cc3)[C@@H]3C(=O)N(Cc4ccccc4)C(=O)[C@@H]32)C1=O`?
PINK1 expr mod: 3.6%; D2 ag: -8.6; CtBP-E1A inh: -16; D2 potentiator: -7; Six1-Eya2 inh: -15

What do the screens show for `Cc1cc(C)cc(OCc2nnc(SCC(=O)OC(C)C)o2)c1`?
TRPV1 potentiator: -4; PINK1 expr mod: -3.1%[38.3 µM]; D2 ag: -2.4; Sfp inh: -3%; CtBP-E1A inh: 34; D2 potentiator: -7; Six1-Eya2 inh: 16

What do the screens show for `Cc1ccc(NC(=O)CCCN2C(=O)C(c3ccccc3)Oc3cccnc32)c(C)c1` (stereo not drawn)?
PINK1 expr mod: 2.1%; D2 ag: -0.9; CtBP-E1A inh: 2; D2 potentiator: -7; Six1-Eya2 inh: 0

How did COC(CN(C)S(=O)(=O)c1cc2c3c(c1)CCN3C(=O)CC2)OC do in these assays?
TRPV1 potentiator: -5; PINK1 expr mod: -0.7%; D2 ag: -1.9; Sfp inh: 19%; CtBP-E1A inh: -11; D2 potentiator: -6; Six1-Eya2 inh: 5

How did O=C(NC1CC1)C1CC(=O)N(c2cccc(Cl)c2)C1 (stereo not drawn) do in these assays?
TRPV1 potentiator: 22; PINK1 expr mod: -0.1%; D2 ag: -3.0; Sfp inh: -7%; CtBP-E1A inh: 2; D2 potentiator: -6; Six1-Eya2 inh: -1

What do the screens show for `CCc1ccc(C(=O)NC(CCSC)C(=O)OC)cc1` (stereo not drawn)?
TRPV1 potentiator: 13; PINK1 expr mod: -1.1%; D2 ag: 0.1; Sfp inh: 13%; CtBP-E1A inh: 3; D2 potentiator: -5; Six1-Eya2 inh: -7

How did CCOc1ccc(CC(=O)NCCS(=O)(=O)N2CCN(c3ccccc3)CC2)cc1 do in these assays?
TRPV1 potentiator: 7; PINK1 expr mod: 0.7%; D2 ag: 0.2; CtBP-E1A inh: -2; D2 potentiator: 0; Six1-Eya2 inh: -2

What do the screens show for `CCOC(=O)c1sc(NC(=O)c2ccc(Cl)s2)cc1C`?
TRPV1 potentiator: 11; PINK1 expr mod: 7.0%; D2 ag: -7.3; Sfp inh: 18%; CtBP-E1A inh: 3; D2 potentiator: -7; Six1-Eya2 inh: -3

Results for COc1ccc(C=C(C(=O)c2ccccc2)c2ccccc2)cc1 ?
PINK1 expr mod: 3.3%; D2 ag: -3.6; CtBP-E1A inh: 12; D2 potentiator: -5; Six1-Eya2 inh: 7

What do the screens show for `COc1ccccc1N(CC(=O)NCCSc1ccc(Cl)cc1)S(C)(=O)=O`?
TRPV1 potentiator: 10; PINK1 expr mod: -2.9%; D2 ag: -0.1; Sfp inh: 20%; CtBP-E1A inh: 3; D2 potentiator: -4; Six1-Eya2 inh: -5

How did CCCCn1c(=O)cc(N2CCOCC2)[nH]c1=O do in these assays?
TRPV1 potentiator: 3; PINK1 expr mod: 3.3%; D2 ag: 0.6; Sfp inh: 4%; CtBP-E1A inh: -1; D2 potentiator: -3; Six1-Eya2 inh: 3

What do the screens show for `CCOCCCNC(=O)C(NC(=O)CNC(=O)c1ccccc1)c1ccc(C)cc1` (stereo not drawn)?
TRPV1 potentiator: 8; PINK1 expr mod: -2.2%; D2 ag: -1.8; Sfp inh: 1%; CtBP-E1A inh: -5; D2 potentiator: -13; Six1-Eya2 inh: 0

Results for Cc1ccc(C(=O)OCC(=O)NCc2ccc(F)cc2)o1 ?
TRPV1 potentiator: -9; PINK1 expr mod: 1.2%; D2 ag: 0.7; CtBP-E1A inh: 11; D2 potentiator: 0; Six1-Eya2 inh: 4

The last two entries of the section before come first, to join the parts.
What do the screens show for `CCOCCCNC(=O)C(NC(=O)CNC(=O)c1ccccc1)c1ccc(C)cc1` (stereo not drawn)?
TRPV1 potentiator: 8; PINK1 expr mod: -2.2%; D2 ag: -1.8; Sfp inh: 1%; CtBP-E1A inh: -5; D2 potentiator: -13; Six1-Eya2 inh: 0

Results for Cc1ccc(C(=O)OCC(=O)NCc2ccc(F)cc2)o1 ?
TRPV1 potentiator: -9; PINK1 expr mod: 1.2%; D2 ag: 0.7; CtBP-E1A inh: 11; D2 potentiator: 0; Six1-Eya2 inh: 4

How did Cc1ccc(NC(=O)COC(=O)CNC(=O)C2CCCCC2)c(Br)c1 do in these assays?
TRPV1 potentiator: 2; PINK1 expr mod: 1.1%; D2 ag: -1.2; Sfp inh: 8%; CtBP-E1A inh: 0; D2 potentiator: -10; Six1-Eya2 inh: 5

What do the screens show for `O=S(=O)(Cc1ncc(C(F)(F)F)cc1Cl)c1ccccc1`?
TRPV1 potentiator: -3; PINK1 expr mod: 3.9%; D2 ag: -3.6; Sfp inh: 13%; CtBP-E1A inh: 6; D2 potentiator: 0; Six1-Eya2 inh: 7

What do the screens show for `CSc1ncccc1C(=O)Nc1ccc(C)cn1`?
TRPV1 potentiator: -3; PINK1 expr mod: -0.3%; D2 ag: 2.2; Sfp inh: 11%; CtBP-E1A inh: -6; D2 potentiator: -2; Six1-Eya2 inh: -4

What do the screens show for `CCOC(=O)C1=C(C)NC(=S)NC1c1ccc(OCC(=O)N2CCCCCC2)cc1` (stereo not drawn)?
TRPV1 potentiator: 19; PINK1 expr mod: -1.6%; D2 ag: 1.9; Sfp inh: 2%; CtBP-E1A inh: 2; D2 potentiator: -4; Six1-Eya2 inh: -2

What do the screens show for `CCOc1ccc(S(=O)(=O)Nc2ccc(C(=O)NN)cc2)cc1`?
TRPV1 potentiator: -5; PINK1 expr mod: 0.3%; D2 ag: -0.3; Sfp inh: -6%; CtBP-E1A inh: 1; D2 potentiator: 1; Six1-Eya2 inh: 27
